Shh pathway inh – blocks Sonic Hedgehog signaling; Shh-LIGHT2 Gli-luciferase reporter, 30 h; inhibition, % (no concentration beside the values); actives 2.1% (n = 22,000); AID 2313;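 active = replicate mean of 65% or more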;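 note: pathway switched on by Shh-conditioned medium diluted 1 in 25 in low serum; 100 nL library stock added to about 40 µL; 0% = median of neutral wells and 100% = positive control level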
MITF inh – inhibitors of MITF; TRPM1 promoter luciferase, luminescence, 24 h; inhibition, % (test concentration not listed); actives 0.28% (n = 37,000);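 active = most replicates at 85% or more, or half of them and the mean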;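 note: human melanocyte line stably carrying TRPM1 promoter luciferase reporter; 0% = vehicle wells and 100% = a positive control; the first replicate is given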
YB-1 expression – YB-1 expression inhibition | U2OS, qRT-PCR YB-1 vs CDIP delta delta Cp, 16 h; hits give high values; zero = DMSO, each unit about twofold | delta delta Cp (YB-1 minus CDIP) (concentration not given with the values) | actives 0.37% (n = 30,000) | AID 434959;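 active = delta delta Cp rounded down to an integer at or above 3, about 3 SD of DMSO wells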;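 note: higher means less YB-1 transcript or more CDIP transcript relative to DMSO; stock transfer was 100 nL into about 100 µL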
PD-1 reverse act – reversal of PD-1 mediated T-cell inhibition | primary human CD4 T cells, PD-L1 beads, CellTiter-Glo 96 h | activation, % (no concentration beside the values) | 29,000 tested, under 10 active;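 active = replicate mean of 50% or more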;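 note: 0% = median vehicle wells and 100% = positive control; 100 nL library stock added to about 50 µL; numbers are from one replicate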
* marks the source's active call; other numbers are inactive results; nt = no result given. The list is partial (hit frequency here may not be typical).

mol	Shh pathway inh	MITF inh	YB-1 expression	PD-1 reverse act
C[C@@H]1CN([C@H](C)CO)C(=O)Cc2cc(NS(=O)(=O)c3ccc(F)cc3)ccc2O[C@H]1CN(C)C(=O)NC1CCCCC1	-16	-12	-0.062	-0.6
COc1ccc(S(=O)(=O)N(C)CC(=O)Nc2cccc(C(C)=O)c2)cc1	nt	15	nt	5.1
CNC[C@@H]1Oc2ccc(NS(=O)(=O)c3ccc(F)cc3)cc2CC(=O)N([C@@H](C)CO)C[C@@H]1C	-25	-7	-0.48	1.3
C[C@@H]1CN([C@H](C)CO)C(=O)c2cc(NC(=O)Nc3ccc(C(F)(F)F)cc3)ccc2O[C@H]1CN(C)C(=O)Nc1ccc(F)cc1	nt	11	-0.071	-1.7
COc1cc(C[C@@H]2COC(c3ccc(O[C@@H]4O[C@H](CO)[C@@H](O)[C@H](O)[C@H]4O)c(OC)c3)[C@@H]2CO)ccc1O[C@@H]1O[C@H](CO)[C@@H](O)[C@H](O)[C@H]1O (stereo partly specified)	-1	0	-0.099	-0.9
COC(=O)Nc1ccc(S(=O)(=O)N2CCCC(C(=O)Nc3ccc(N(C)C)cc3)C2)cc1 (stereo unspecified)	nt	13	nt	2.9
COc1c(-c2ccccc2)oc2c(OC)c(O)cc(O)c2c1=O	9	-31	-0.17	0.5
C[C@@H]1CN([C@H](C)CO)C(=O)c2cc(NC(=O)Cc3cn(C)c4ccccc34)ccc2O[C@@H]1CN(C)S(=O)(=O)c1ccc(F)cc1	-28	7	-0.44	nt
Cc1noc(C)c1S(=O)(=O)Nc1ccc2c(c1)CC(=O)N([C@@H](C)CO)C[C@H](C)[C@H](CN(C)C(=O)NC1CCCCC1)O2	-61	-18	-0.23	-1.7
O=Nc1c(O)n(CC(=O)Nc2ccccc2)c2ccccc12	-38	-23	0.21	-0.3
C[C@@H]1C[C@H]2[C@@H]3C[C@H](F)C4=CC(=O)C=C[C@]4(C)[C@@]3(F)[C@@H](O)C[C@]2(C)[C@@]1(O)C(=O)CO	27	-33	-0.11	nt
Cc1ccc(S(=O)(=O)N(C)CC(=O)Nc2ccc(C(F)(F)F)cc2)cc1	nt	18	nt	1.3
CC1=CC(C)(C)N(Cc2ccccc2)c2ccccc21	44	1	-0.62	-0.7
S=c1cc(-c2ccccc2)oc(-c2ccccc2)c1	23	-23	-0.23	-32
COc1ccc(NC(=O)CN(C)S(=O)(=O)c2ccc(Cl)cc2)c([N+](=O)[O-])c1	nt	20	nt	0.6
Cc1noc(C)c1NC(=O)Nc1ccc2c(c1)C(=O)N([C@@H](C)CO)C[C@H](C)[C@H](CN(C)Cc1ccncc1)O2	-29	-1	0.23	2.0
COc1ccc(NC(=O)Nc2ccc3c(c2)C(=O)N([C@@H](C)CO)C[C@@H](C)[C@@H](CN(C)Cc2ccc(-c4ccccc4)cc2)O3)cc1	52	10	0.18	-6.0
Cn1c(=O)c2c(nc(NCCN)n2Cc2ccc(Cl)cc2)n(C)c1=O	nt	-7	nt	2.4
COc1ccc(S(=O)(=O)Nc2cccc3c2O[C@H](CN(C)Cc2ccc(C(=O)O)cc2)[C@H](C)CN([C@H](C)CO)C3=O)cc1	42	1	-0.07	1.7
C[C@@H]1CCCCO[C@@H](CN(C)Cc2ccc3c(c2)OCO3)[C@@H](C)CN([C@H](C)CO)C(=O)c2cc(NS(=O)(=O)c3cccs3)ccc2O1	74*	0	-0.51	-1.8
Cc1ccc(S(=O)(=O)Nc2cccc3c2O[C@@H](CN(C)S(=O)(=O)c2ccc(F)cc2)[C@@H](C)CN([C@@H](C)CO)C3=O)cc1	9	-4	-0.34	1.1
C[C@H]1CN([C@@H](C)CO)C(=O)c2cc(NC(=O)CCC(F)(F)F)ccc2O[C@H]1CN(C)C	-1	-2	-0.042	nt
COc1ccc(S(=O)(=O)NCc2ccccn2)cc1Cl	nt	-12	nt	-0.9
C[C@H]1CN([C@@H](C)CO)C(=O)c2cc(NC(=O)Nc3cccc4ccccc34)ccc2O[C@H]1CN(C)Cc1ccccc1	7	13	-0.23	-1.5
O=S1(=O)CCC(N(S(=O)(=O)c2ccc(F)cc2)S(=O)(=O)c2ccc(Cl)cc2)C1 (stereo unspecified)	2	-23	0.035	0.2
O=C(CCn1cccc(C(F)(F)F)c1=O)Nc1cccc(C(F)(F)F)c1	nt	-6	-1.1	0.2
COc1ccc(S(=O)(=O)N2Cc3ccccc3CC2C(=O)Nc2ccc(C)cc2C)cc1OC (stereo unspecified)	nt	-12	nt	-0.5
COc1ccc(S(=O)(=O)Nc2ccc3c(c2)C(=O)N([C@H](C)CO)C[C@@H](C)[C@H](CN(C)C(=O)Nc2ccccc2)O3)cc1	nt	-4	0.2	0.9
COc1ccc([N+](=O)[O-])cc1NC(=O)C(C)N(c1ccccc1)S(C)(=O)=O (stereo unspecified)	nt	-6	nt	0.6
C[C@@H]1CN([C@H](C)CO)C(=O)c2cccc(NC(=O)Nc3ccc4c(c3)OCO4)c2O[C@@H]1CN(C)Cc1ccc(C(=O)Nc2ccccc2N)cc1	nt	-3	-0.23	-1.3

Reprinted at random: two entries already listed.
mol	Shh pathway inh	MITF inh	YB-1 expression	PD-1 reverse act
COc1ccc(S(=O)(=O)Nc2ccc3c(c2)C(=O)N([C@H](C)CO)C[C@@H](C)[C@H](CN(C)C(=O)Nc2ccccc2)O3)cc1	nt	-4	0.2	0.9
COc1ccc(S(=O)(=O)NCc2ccccn2)cc1Cl	nt	-12	nt	-0.9

Further structures:
mol	Shh pathway inh	MITF inh	YB-1 expression	PD-1 reverse act
Cc1ccc(S(=O)(=O)N(C)C[C@@H]2Oc3ccc(NS(=O)(=O)c4ccc(F)cc4)cc3CC(=O)N([C@@H](C)CO)C[C@@H]2C)cc1	-18	-12	-0.13	0.0
CC(=O)Nc1cccc(-c2nn3c(C)nnc3s2)c1	35	-20	-0.29	0.5
CC(C)NC(=O)Nc1ccc2c(c1)C(=O)N([C@H](C)CO)C[C@H](C)[C@H](CN(C)S(=O)(=O)c1ccccc1)O2	5	2	0.38	-1.2
C[C@@H]1CN([C@H](C)CO)C(=O)c2cc(NC(=O)NC3CCCCC3)ccc2O[C@@H]1CN(C)S(=O)(=O)c1ccccc1	nt	-8	0.097	0.3
O=C(CSc1nc2ccccc2c(=O)n1-c1ccc(Cl)cc1)Nc1ccc(Cl)c(Cl)c1	nt	6	nt	1.7
Cc1sc2ncnc(SCC(=O)Nc3ccc(F)cc3)c2c1C	nt	4	nt	-2.8
C=CC(=O)c1ccc2ccccc2c1	51	2	0.29	-42
Cc1c(Br)c([N+](=O)[O-])nn1CC(=O)Nc1cc(F)ccc1F	nt	-12	nt	0.3
C[C@H]1CN([C@@H](C)CO)C(=O)c2cccc(NC(=O)C3CCCCC3)c2O[C@@H]1CN(C)C(=O)Nc1ccccc1	-18	-10	0.37	nt
C[C@@H]1CN([C@H](C)CO)C(=O)c2cccc(NS(C)(=O)=O)c2O[C@H]1CN(C)S(=O)(=O)c1ccccc1	-1	-9	-0.11	2.4
CS(=O)c1sc(C(=O)OCc2ccccc2)c2c1C(=O)CC(C)(C)C2 (stereo unspecified)	nt	78	-0.14	-7.5
C[C@@H]1CN([C@@H](C)CO)C(=O)c2cccc(NC(=O)c3nc4ccccc4s3)c2O[C@@H]1CN(C)S(=O)(=O)c1ccccc1	-44	37	0.36	0.0
CC(C)NC(=O)N(C)C[C@H]1OCCCC[C@@H](C)Oc2ccc(NS(=O)(=O)c3ccc(Cl)cc3)cc2C(=O)N([C@H](C)CO)C[C@@H]1C	-5	-18	0.45	nt
COc1ccc2nc(SCC3=CC(C)(C)N(C(C)=O)c4ccccc43)nc(C)c2c1	nt	4	nt	1.0
COC(=O)c1cccc(NC(=O)CSc2nc(C)cc(-c3ccccc3)n2)c1	nt	-13	nt	-4.4
C[C@H]1CN([C@@H](C)CO)C(=O)c2cc(NS(=O)(=O)c3ccc(Cl)cc3)ccc2O[C@H]1CN(C)Cc1ccc(C(=O)Nc2ccccc2N)cc1	nt	21	-0.4	-0.7
C[C@@H]1CN([C@@H](C)CO)C(=O)c2cc(NC(=O)Nc3ccc(C(F)(F)F)cc3)ccc2O[C@@H]1CN(C)S(=O)(=O)c1cccs1	44	43	-0.16	-2.5
C=C[C@H]1[C@H](OC2OC(CO)C(O)C(O)C2O)OC=C(C(=O)OC)[C@H]1CCOC(=O)c1cc(O)c(O)c(O)c1 (stereo partly specified)	-23	-3	-0.18	-0.1
CNC[C@@H]1Oc2c(NS(=O)(=O)c3cccs3)cccc2C(=O)N([C@@H](C)CO)C[C@H]1C	-49	1	0.14	4.1
COc1ccc(S(=O)(=O)N(C)C[C@@H]2Oc3ccc(NC(=O)c4ccncc4)cc3C(=O)N([C@@H](C)CO)C[C@H]2C)cc1	nt	-2	-0.32	1.1
C[C@@H]1CN([C@H](C)CO)C(=O)Cc2cc(NC(=O)Nc3ccc4c(c3)OCO4)ccc2O[C@H]1CN(C)Cc1ccncc1	-23	-4	-0.0075	0.9
Cc1ccc2cc(S(=O)(=O)NCCCC(=O)O)ccc2c1	nt	-16	nt	1.6
Cc1ccc(S(=O)(=O)N2CCCC2C(=O)NCCO)cc1 (stereo unspecified)	nt	-8	nt	1.7
Cc1ccc2oc(-c3ccc(Cl)c(NC(=O)COc4ccc(C)c(C)c4)c3)nc2c1	nt	16	nt	3.9
O=C(O)c1ccc2ccccc2c1Br	-5	-10	0.091	-0.1
Cc1cc(F)ccc1S(=O)(=O)NCC1CC2CCC1C2 (stereo unspecified)	5	8	-0.55	-14
C[C@@H]1CN([C@H](C)CO)C(=O)c2cccc(NC(=O)Nc3ccc4c(c3)OCO4)c2O[C@H]1CN(C)C(=O)Nc1ccc2c(c1)OCO2	19	-3	0.067	1.2
CCS(=O)(=O)n1nc(-c2ccccc2)nc1NCc1ccco1	nt	-57	nt	-1.8
CCn1c(SCC(=O)Nc2sc3c(c2C#N)CCCC3)nnc1-c1ccco1	nt	-22	nt	0.5
COc1ccc(NC(=O)N(C)C[C@@H]2Oc3c(NC(=O)c4nc5ccccc5s4)cccc3C(=O)N([C@H](C)CO)C[C@H]2C)cc1	-4	1	0.021	-0.3

An excerpt from above with just PD-1 reverse act and YB-1 expression:
SMILES,PD-1 reverse act,YB-1 expression
C[C@@H]1CN([C@@H](C)CO)C(=O)c2cccc(NC(=O)c3nc4ccccc4s3)c2O[C@@H]1CN(C)S(=O)(=O)c1ccccc1,0.0,0.36
CS(=O)c1sc(C(=O)OCc2ccccc2)c2c1C(=O)CC(C)(C)C2 (stereo unspecified),-7.5,-0.14
CC(=O)Nc1cccc(-c2nn3c(C)nnc3s2)c1,0.5,-0.29

Following part:
mol	Shh pathway inh	MITF inh	YB-1 expression	PD-1 reverse act
Cc1noc(C)c1NC(=O)Nc1ccc2c(c1)CC(=O)N([C@@H](C)CO)C[C@@H](C)[C@@H](CN(C)Cc1ccc(C(=O)Nc3ccccc3N)cc1)O2	nt	-19	-0.12	0.2
COc1ccc(OC)c2c(=O)cc(C(=O)O)oc12	-24	0	-0.078	-0.3
C[C@H](CO)N1C[C@H](C)[C@H](CN(C)Cc2ccc(Oc3ccccc3)cc2)Oc2ccc(NC(=O)C3CCCCC3)cc2CC1=O	18	8	-0.46	-2.5
O=C(Cn1c(=O)oc2ccccc21)Nc1ccc2c(c1)oc1ccccc12	nt	-36	nt	-0.4
C[C@@H]1CN([C@H](C)CO)C(=O)c2cccc(NC(=O)C3CCCCC3)c2O[C@@H]1CN(C)C(=O)Nc1cccc2ccccc12	8	-1	-0.021	1.5
COc1ccc(CN(C)C[C@H]2Oc3c(NC(=O)c4cc(C)nn4C)cccc3C(=O)N([C@@H](C)CO)C[C@@H]2C)cc1	-2	-25	-0.52	nt
CCOC(=O)c1ccc(NC(=O)Cn2nc(C)c([N+](=O)[O-])c2C)cc1	nt	-11	nt	2.5
N#CN=C(N)c1sc2nc3c(cc2c1N)CCCCC3	-148	21	-0.88	0.7

Full records, looked up by structure. Screens in order: Shh pathway inh	MITF inh	YB-1 expression	PD-1 reverse act
`COc1ccc(CN(C)C[C@H]2Oc3c(NC(=O)c4cc(C)nn4C)cccc3C(=O)N([C@@H](C)CO)C[C@@H]2C)cc1` across the screens: -2	-25	-0.52	nt
`C[C@@H]1CN([C@H](C)CO)C(=O)c2cccc(NC(=O)C3CCCCC3)c2O[C@@H]1CN(C)C(=O)Nc1cccc2ccccc12` across the screens: 8	-1	-0.021	1.5
